# Bioassay records as filed in PubChem BioAssay.
# GIRK2 act – activators of human GIRK2 potassium channels; G protein-activated inward rectifier potassium channel 2 (Homo sapiens), P48051; HEK293-GIRK2 thallium flux, Thallos fluorescence; calls only for hits at 25 µM; actives 0.05% (n = 63,000); AID 1259325, 2017;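 active = among the strongest 0.2% of first-round signals and kept after retests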;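 also: first round at about 10 µM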
# Target sequence (P48051 whole entry, looked up): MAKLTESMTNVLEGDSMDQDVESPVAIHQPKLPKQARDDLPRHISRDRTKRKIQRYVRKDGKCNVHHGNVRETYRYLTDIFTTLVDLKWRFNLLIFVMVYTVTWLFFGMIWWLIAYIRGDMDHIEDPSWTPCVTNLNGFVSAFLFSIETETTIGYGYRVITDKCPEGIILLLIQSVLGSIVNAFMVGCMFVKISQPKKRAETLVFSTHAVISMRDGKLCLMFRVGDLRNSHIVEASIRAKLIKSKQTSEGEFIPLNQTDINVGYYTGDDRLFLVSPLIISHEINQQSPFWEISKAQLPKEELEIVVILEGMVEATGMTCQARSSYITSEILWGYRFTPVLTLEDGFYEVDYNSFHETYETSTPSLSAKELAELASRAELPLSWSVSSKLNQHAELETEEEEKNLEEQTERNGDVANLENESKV
# Calls only; i = inactive.
SMILES,GIRK2 act
Cc1cc(C(O)CCNC(=O)C(=O)Nc2cccc(Cl)c2C)c(C)o1 (centres undefined),i
COc1cc(OC)cc(C(=O)Nc2cc3c4c(c2)CCC(=O)N4CCC3)c1,i
O=c1ccc(-c2nc(-c3ccsc3)no2)cn1CCc1ccccc1,i
CCOC(=O)c1c(NCc2ccc(OC)cc2)c2cc(C)ccc2[nH]c1=O,i
CCS(=O)(=O)N1CCCc2cc(NS(=O)(=O)c3ccc(OC)cc3C)ccc21,i
CCCNc1nc2c(c(=O)[nH]c(=O)n2C)n1CC(O)COc1ccccc1 (centres undefined),i
CS(=O)(=O)N1CCN=C1SCc1ccc(Cl)cc1Cl,i
COc1ccc(S(=O)(=O)NCCC(=O)N2CCCCC2)cc1N(C)S(=O)(=O)c1ccccc1,i
CCOC(=O)c1ccc2ncc3c(=O)[nH][nH]c3c2c1,i
Cc1cc(NC(=O)C23CC4CC(CC(C4)C2)C3)n(-c2nc3c(cnn3-c3ccc(F)cc3)c(=O)[nH]2)n1,i
O=C1COc2cc(O)cc(O)c21,i
CC(O)(CNC(=O)c1cc(-c2ccco2)on1)c1ccco1 (centres undefined),i
CC(=O)N1N=C(c2ccccc2NS(C)(=O)=O)CC1c1cccc2nccnc12 (centres undefined),i
Cc1noc(CNC(=O)C2CCN(C(=O)Cc3cn(C)c4ccccc34)CC2)n1,i
COc1ccc(OC)c(NC(=O)CN(C)c2nc3c(C(F)(F)F)cccc3s2)c1,i
CCCS(=O)(=O)N1CCCc2ccc(NS(=O)(=O)c3ccc(OC)c(Cl)c3)cc21,i
Cc1cc(C(=O)N2CCN(CCNC(=O)/C=C/c3ccc4c(c3)OCO4)CC2)no1,i
CCCCOc1ccc(C(=O)Nc2cc(C3CC3)nn2-c2nc(C(C)C)cc(=O)[nH]2)cc1,i
Cc1ccc2c(Nc3ccc(CC(=O)O)cc3)c(C(=O)N3CCCCCC3)cnc2n1,i
O=C(CN1C(=O)CCC1=O)NCc1ccc(C(O)c2cccs2)s1 (centres undefined),i
Cc1noc(-c2ccc(N3CCC(NC(=O)c4ccc5c(c4)OCO5)C3)nc2)n1 (centres undefined),i
CCCS(=O)(=O)N1CCc2ccc(NC(=O)/C=C/c3ccccc3Cl)cc2C1,i
COc1ccc(OCC(O)Cn2c(NCC(C)C)nc3c2c(=O)n(C)c(=O)n3C)cc1 (centres undefined),i
CCOC(=O)C1CCCN(C(=O)c2nnn(-c3ncc(C)s3)c2C)C1 (centres undefined),i
COc1ccc(OC)c(C2C(=C(O)c3ccc(F)cc3)C(=O)C(=O)N2c2cc(C)on2)c1 (centres undefined),i
C#CCOCC1CCN(C(=O)c2ccccc2C)CC1,i
CCN(Cc1ccco1)C(=O)c1snc(-c2ccccn2)c1N,i
CS(=O)(=O)c1ccc2nc(N(Cc3ccccc3)C(=O)c3ccc4ncsc4c3)sc2c1,i
COC(=O)c1ccc(S(=O)(=O)NCC2CCN(C(=O)c3ccccc3F)CC2)cc1,i
O=c1[nH]c(=S)c2c(n1CCCO)CCC2,i
CCOc1ccc(-c2noc(C3CCCN(S(=O)(=O)c4cccs4)C3)n2)cc1OC (centres undefined),i
COc1ccc(CCS(=O)(=O)NCCC2CCCCN2S(=O)(=O)c2cccs2)cc1 (centres undefined),i
COc1cccc2cc(C(=O)NCCn3nc(-n4nc(C)cc4C)ccc3=O)oc12,i
COc1ccc(CNC(=O)C2CCCN(c3ccc(-c4ccc(C)c(C)c4)nn3)C2)cc1OC (centres undefined),i
COc1ccc(CC(=O)N2CCN(c3ncnc4c3nnn4-c3ccccc3)CC2)cc1,i
O=C(Nc1nc2c(s1)CN(S(=O)(=O)c1cccnc1)CC2)c1ccco1,i
CCn1cnc2c(-c3ccccc3)cn(CC(=O)N(C)c3ccccc3)c2c1=O,i
Cc1cccc(CS(=O)(=O)NCC2CCN(C(=O)c3cccnc3)CC2)c1,i
CCOC(=O)c1cc2c(c(C(=O)OCC)c1O)CCCC2,i
O=C(NCc1cnn2ccccc12)c1nc2ccccc2s1,i
COc1cccc(CCNC(=O)C(C)n2nc(C)ccc2=O)c1 (centres undefined),i
Cc1cccc(NC(=O)Cn2ncn3c(C)c(C(=O)NCC(C)C)c(C)c3c2=O)c1,i
CC(=O)c1ccc(NC(=O)COc2cc(=O)n3ccccc3n2)cc1,i
COCC1=C(C(=O)OC(C)OC(=O)OC(C)C)N2C(=O)[C@@H](NC(=O)/C(=N/OC)c3csc(N)n3)[C@H]2SC1 (some centres undefined),i
Cc1ccc(Cl)cc1N1CCN(S(=O)(=O)N2CCCCC2)CC1,i
COc1ccc(-c2c(C#N)c(N)nc3c2c(C)nn3-c2ccc(C)cc2)cc1OC,i
CCS(=O)(=O)c1cccc(-c2cc(C(=O)NC3CCN(C)CC3)c(C)c3[nH]c4ncc(C)cc4c23)c1,i
COc1ccccc1N1CCN(C(=O)CSc2n[nH]c(=O)c3cc(-c4ccc(F)cc4)nn23)CC1,i
O=Nc1c(-c2c(O)[nH]c3cc(Br)ccc23)[nH]c2ccccc12,i
Cc1ccc2sc(NC(=O)CN3C(=O)CCC3=O)nc2c1C,i
COCCn1c(-n2nc(C)cc2C)nc2c1c(=O)n(Cc1ccc(C)cc1)c(=O)n2C,i
COc1ccc(C)cc1S(=O)(=O)NCCNc1cc(Nc2ccccn2)nc(C)n1,i
NC(=O)CCc1csc(NC(=O)Nc2ccccc2)n1,i
COc1cc(/C=C/c2ccc(Cl)cc2)cc(OC)c1,i
O=C(NCCn1nc(C2CC2)n(-c2ccccc2)c1=O)Nc1ccccc1Cl,i
COC(=O)c1cc(OCC(=O)Nc2ccccc2Cl)c2ccccc2n1,i
COc1ccc(S(=O)(=O)Nc2ccc3c(c2)CCCN3C(=O)c2ccccc2)cc1F,i
COc1ccccc1-c1c(C(F)(F)F)oc2c3c(ccc2c1=O)OCN(Cc1ccco1)C3,i
CCc1noc(-c2ccnc(SCC(=O)Nc3cccc(C(C)=O)c3)c2)n1,i
COCCN(Cc1ccsc1)S(=O)(=O)c1ccc(OC)c(Cl)c1,i

# Compounds shown so far that contain a thiophene ring, fused or not:
SMILES,GIRK2 act
O=c1ccc(-c2nc(-c3ccsc3)no2)cn1CCc1ccccc1,i
O=C(CN1C(=O)CCC1=O)NCc1ccc(C(O)c2cccs2)s1 (centres undefined),i
CCOc1ccc(-c2noc(C3CCCN(S(=O)(=O)c4cccs4)C3)n2)cc1OC (centres undefined),i
COc1ccc(CCS(=O)(=O)NCCC2CCCCN2S(=O)(=O)c2cccs2)cc1 (centres undefined),i
COCCN(Cc1ccsc1)S(=O)(=O)c1ccc(OC)c(Cl)c1,i

# (continued)
SMILES,GIRK2 act
COc1cccc2cc(C(=O)N3CCC(Oc4cnccn4)CC3)oc12,i
Cc1c(C)n(Cc2ccco2)c2ncnc(NCC(=O)O)c12,i
Cc1cc(C)n(CC(=O)Nc2ccccc2)c(=O)c1-c1nc(-c2ccc(F)cc2)no1,i
COCCNS(=O)(=O)CCNC(=O)c1ccc(OC)cc1,i
O=S(=O)(c1ccccc1)N1CCC(c2nc(-c3ccc(C(F)(F)F)cc3)no2)CC1,i
Cc1cc(=O)n(CC(=O)Nc2ccccc2C(F)(F)F)c(Nc2cccc(F)c2)n1,i
CCCOc1ccc(/C=C/C(=O)Nc2ccc(OC)c(OC)c2)cc1,i
O=C1CCSCC(C(=O)NCc2nc3ccccc3[nH]2)N1 (centres undefined),i
Cn1cc(OCc2ccc(F)cc2)c(=O)cc1C(=O)NCCc1ccc(S(N)(=O)=O)cc1,i
CCOCCn1c(-n2nc(C)cc2C)nc2c1c(=O)n(CCOC)c(=O)n2C,i
O=C1NC(=NCCc2ccccc2F)S/C1=C\c1ccc2ncccc2c1,i
CCOc1ccc(N2CCCn3c2nc2c3c(=O)n(Cc3ccc(F)cc3)c(=O)n2C)cc1,i
O=C(Cc1csc(Nc2ncccn2)n1)NCc1ccccc1F,i
CCN1CCN(S(=O)(=O)c2ccc(Oc3ccccc3Cl)cc2)CC1,i
CC(C)N1CCc2c(sc(NC(=O)c3ccc(C#N)cc3)c2-c2nc3ccccc3s2)C1,i
CCOC(=O)N1CCN(C(=O)C2CC2c2cccs2)CC1 (centres undefined),i
COc1ccc(Cl)cc1NC(=O)CSc1nccn(-c2ccc(C)cc2)c1=O,i
CCOC(=O)C1=C(C)N=c2s/c(=C/N(C)C)c(=O)n2C1c1ccccc1 (centres undefined),i
COc1ccc(C(=O)NCc2nc(C)no2)cc1OC,i
Cc1cccc(C)c1OCCCCn1c(CO)nc2ccccc21,i
COCCNC(=O)C(=O)NCCC(O)c1ccccc1 (centres undefined),i
O=C(C1CC(=O)N(c2ccccc2)C1)N1CCC2(CC1)OCCS2 (centres undefined),i
O=C(Cn1nc(-c2cccc(Br)c2)ccc1=O)NCC1CCCO1 (centres undefined),i
Cc1nccn1-c1ncc(NC(=O)CC(C)C)cn1,i
O=C(CSc1ccccc1)N(CCn1cccn1)c1nc2ccccc2s1,i
CNC(=O)CSc1ncc(-c2ccc(OC)cc2)n1-c1ccc(OC(F)F)cc1,i
COC(=O)c1ccc(N/C=C(\C#N)c2nc(-c3ccccc3)cs2)cc1,i
Cc1cccc(NC(=O)c2cn(CC(=O)Nc3ccccc3)c3nc(C)ccc3c2=O)c1,i
Cc1ccc(N2CC(c3nc(-c4ccc(Br)cc4)no3)CC2=O)c(C)c1 (centres undefined),i
Cc1ccc(CNC(=O)c2cccc(-n3ccnc3SCC(=O)Nc3ccc4c(c3)OCO4)c2)o1,i
Cc1cc(C)nc(Nc2nc(CC(=O)Nc3nc4c(s3)CCCC4)cs2)n1,i
CC(C)c1ccc(/C=C/C(=O)N2CCC3(O)CCCCC3C2)cc1 (centres undefined),i
O=C(NC(c1ccccc1)c1ccccc1)N1CCN(c2ccccc2)CC1,i
COc1ccc(/C=N/Nc2nc3ccccc3o2)cc1O,i
Cn1cccc(C(=O)NCc2cnn3ccccc23)c1=O,i
O=c1c2oc3ccccc3c2nc(SCc2nc(-c3ccccc3)no2)n1CC1CCCO1 (centres undefined),i
COc1ccc(/C=C/C(=O)c2cc(Br)ccc2O)cc1OC,i
COc1cc(/C=C2\SC(=S)N(c3ccccc3Br)C2=O)cc(OC)c1OC,i
COCC1CCCN(Cc2cc(OC)cc(OC)c2)C1 (centres undefined),i
Cc1ccc(F)cc1S(=O)(=O)Nc1cnc(N2CCCC2)nc1,i
O=C(Cn1nc(-c2ccccc2)c2sc(N3CCOCC3)nc2c1=O)NCc1ccccc1Cl,i
NS(=O)(=O)c1ccc(CNC(=O)CN2CCN(c3ccc4c(c3)OCO4)C2=O)cc1,i
CS(=O)(=O)N1CCC(COCc2ccccc2)CC1,i
CS(=O)(=O)N1CCC(C(=O)N2CCC3(CC2)OCCS3)CC1,i
COC(=O)c1ccc(C(=O)N2CCC(Oc3ncccc3Cl)CC2)cc1,i
CSc1ccccc1NC(=O)CN(C)c1nc2c(C)ccc(C)c2s1,i
NS(=O)(=O)c1ccc(CNC(=O)c2coc(NC(=O)C3CCC3)n2)cc1,i
CCCCN1CC(c2nc3ccccc3n2CCOc2ccc(C)cc2)CC1=O (centres undefined),i
Cc1nc(-n2nc(C3CC3)cc2NC(=O)c2ccc(F)cc2F)[nH]c(=O)c1C,i
Cc1cc(C(F)(F)F)nc(CCNS(=O)(=O)C2CC2)n1,i
CN(CC(=O)Nc1ccc2c(c1)Cc1ccccc1-2)C(=O)c1c[nH]c2ccccc12,i
CC(=O)N1CCc2c(sc(NC(=O)C(C)C)c2-c2nc3ccccc3s2)C1,i
COc1ccc(-c2csc(CN3CCN(C(=O)C4CC4)CC3)n2)cc1,i
Cn1c(CN2CCN(C(=O)c3cc(=O)c4ccccc4o3)CC2)nc2ccccc21,i
COCCNS(=O)(=O)C1CC1,i
O=C(CN1CC(c2nc(-c3ncccn3)no2)C1)N1CCCc2ccccc21,i
COc1cc(S(=O)(=O)NCc2ccccn2)ccc1Cl,i
COc1ccc(C)cc1NC(=O)C1CSCCC(=O)N1 (centres undefined),i
CCOC(=O)N1CCN(C(=O)CN(C)c2nc3c(Cl)cccc3s2)CC1,i
COc1ccc(NC(=O)C(=O)NCc2ccc3c(c2)OCO3)cc1OC,i
# Going on with the list.
SMILES,GIRK2 act
O=C(CSc1nc2c(sc(=S)n2-c2ccccc2)c(=O)[nH]1)Nc1ccccc1C(F)(F)F,i
O=C(CSc1ncc(-c2ccc(Br)cc2)o1)NCc1ccco1,i
CCN(Cc1ccncc1)C(=O)C(CO)c1ccccc1 (centres undefined),i
COc1ccc(OCCS(=O)(=O)Nc2nc3ccc(Cl)cc3s2)cc1,i
COc1ccccc1/C=C1\SC(=S)N(c2ccccc2)C1=O,i
O=c1ccn(-c2ccccc2)nc1-c1nc(-c2ccc(OCc3ccccc3)cc2)no1,i
Cc1ccc(OCC(O)Cn2c(NC3CCCCC3)nc3c2c(=O)[nH]c(=O)n3C)cc1C (centres undefined),i
CC(C)Sc1ccc(CC(=O)NCC#CCN2CCOCC2)cc1,i

# In the list so far, these contain a furan ring, fused or not:
SMILES,GIRK2 act
Cc1cc(C(O)CCNC(=O)C(=O)Nc2cccc(Cl)c2C)c(C)o1 (centres undefined),i
CC(O)(CNC(=O)c1cc(-c2ccco2)on1)c1ccco1 (centres undefined),i
CCN(Cc1ccco1)C(=O)c1snc(-c2ccccn2)c1N,i
COc1cccc2cc(C(=O)NCCn3nc(-n4nc(C)cc4C)ccc3=O)oc12,i
O=C(Nc1nc2c(s1)CN(S(=O)(=O)c1cccnc1)CC2)c1ccco1,i
COc1ccccc1-c1c(C(F)(F)F)oc2c3c(ccc2c1=O)OCN(Cc1ccco1)C3,i
COc1cccc2cc(C(=O)N3CCC(Oc4cnccn4)CC3)oc12,i
Cc1c(C)n(Cc2ccco2)c2ncnc(NCC(=O)O)c12,i
Cc1ccc(CNC(=O)c2cccc(-n3ccnc3SCC(=O)Nc3ccc4c(c3)OCO4)c2)o1,i
O=c1c2oc3ccccc3c2nc(SCc2nc(-c3ccccc3)no2)n1CC1CCCO1 (centres undefined),i
O=C(CSc1ncc(-c2ccc(Br)cc2)o1)NCc1ccco1,i

# Some of the compounds tested, so the mix of outcomes need not match the whole.
